Polio RdRp inh: inhibitors of poliovirus RNA polymerase binding and polymerization; P03300; poliovirus polymerase elongation, fluorescence polarization; active compounds read low; % elongation, % (compound at 16.7 µg/mL); actives 0.66% (n = 150,000); in the data active means % elongation below about 90%; further: some results filed as inactive read as strong as hits
Target sequence (P03300 1749-2209 limits assumed): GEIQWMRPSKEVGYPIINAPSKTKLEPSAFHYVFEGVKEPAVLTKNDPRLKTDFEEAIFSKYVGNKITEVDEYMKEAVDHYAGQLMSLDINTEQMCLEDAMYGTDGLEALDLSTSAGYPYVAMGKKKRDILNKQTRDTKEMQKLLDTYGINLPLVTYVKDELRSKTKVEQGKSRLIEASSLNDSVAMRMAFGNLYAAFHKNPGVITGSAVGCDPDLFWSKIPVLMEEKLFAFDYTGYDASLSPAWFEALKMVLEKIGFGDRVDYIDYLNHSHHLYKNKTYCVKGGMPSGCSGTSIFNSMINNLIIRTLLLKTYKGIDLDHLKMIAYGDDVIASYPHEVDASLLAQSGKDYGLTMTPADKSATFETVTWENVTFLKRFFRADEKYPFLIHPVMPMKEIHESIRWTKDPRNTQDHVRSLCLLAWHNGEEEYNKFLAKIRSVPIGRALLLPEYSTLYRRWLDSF
Polio RdRp inh intensity: recorded beside Polio RdRp inh, whose call it bears; % elongation; measured here: total intensity read-out; formula for this scale not given here;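 total fluorescence in place of polarization; lower means less elongation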
* marks the source's active call; other numbers are inactive results. These rows are one share of the data (hit frequency here may not be typical).

nr	Molecule	Polio RdRp inh	Polio RdRp inh intensity
1	Cc1ccccc1Nc1c(-c2c(F)cccc2Cl)nc2ccc(Br)cn12	107	108
2	COc1ccccc1N1CCN(CCCNC(=O)c2cnn(-c3ccccc3)c2C2CCN(C(=O)OC(C)(C)C)CC2)CC1	106	104
3	COc1cccc(C(=O)N(Cc2ccc(N(C)C)cc2)Cc2ccco2)c1	109	112
4	Cc1ccc(CNC(=O)Cc2c(C(=O)O)c(C)cn2C)cc1	113	112
5	Cc1ccc(NC(=O)Cc2coc3ccc(C(C)C)cc23)c(C)c1	117	119
6	CCc1ccc(NCc2cc3cc4c(cc3n(CC(=O)Nc3ccccc3Cl)c2=O)OCO4)cc1	97	113
7	O=c1c(S(=O)(=O)c2ccc(Cl)cc2)cn(Cc2ccc(F)cc2)c2ccc(F)cc12	101	96
8	Cc1cccc(NC(=O)c2sc3nc4c(cc3c2N)CN(C(C)C)CC4)c1	107	114
9	Cc1cc(S(=O)(=O)Nc2cccc(C(=O)O)c2)c(C)c(S(=O)(=O)c2ccccc2)c1	92	96
10	O=C(Nc1ccc(C(=O)OCc2cc(=O)n3c4c(sc3n2)CCCC4)cc1)c1ccccc1	109	116
11	COc1ccc(C(=O)Nc2nnc(S(=O)(=O)N3CCC(C)CC3)s2)cc1OC	110	109
12	CC(=O)c1cccc(NC(=O)Cn2nc(C(F)(F)F)c3c2CCC3)c1	107	110
13	Cc1oc(-c2ccc(Cl)cc2)nc1CN1C(=O)CN=C(c2ccccc2)c2cc(Cl)ccc21	111	111
14	Cc1cc(C)cc(NC(=O)c2cn3c4c(ccc(Cl)c4c2=O)OC(C)C3)c1 (configuration not stated)	112	114
15	O=C(CCn1ccc2cc(S(=O)(=O)N3CCCC3)ccc21)NCc1cccc(Br)c1	131	145
16	O=C(C1CCN(S(=O)(=O)c2ccc(Br)s2)CC1)N1CCN(c2cccc(C(F)(F)F)c2)CC1	104	103
17	O=C(Cn1nnc(-c2cccc(C(F)(F)F)c2)n1)NCc1ccc(F)cc1	104	107
18	CCC(C)Sc1nc2c([nH]c3ccccc32)c(=O)n1C (configuration not stated)	111	111
19	Cc1ccc(C)c(NC(=O)c2ccc3c(c2)CCCN3S(C)(=O)=O)c1	108	107
20	CCS(=O)(=O)N1CCc2cc(C(=O)Nc3ccc(OC)cc3OC)ccc21	110	111
21	CCN(CC)CCNC(=O)c1ccc2c(=O)n3nc(Nc4ccccc4)sc3nc2c1	81*	65*
22	O=C(COc1ccc(Cl)cc1)NCC(c1ccco1)S(=O)(=O)c1ccc(Cl)cc1 (configuration not stated)	107	94
23	Cc1c(Cl)cccc1NC(=O)c1cc2nc(-c3ccc4c(c3)OCO4)cc(C(F)(F)F)n2n1	105	111
24	O=C(NCC(c1ccc2c(c1)OCO2)N1CCN(c2ccccc2)CC1)C(=O)Nc1cccc(F)c1 (configuration not stated)	105	101
25	CCN(Cc1ccccc1)C(=O)C(CC(C)C)NS(=O)(=O)c1ccc2c(c1)CCN2C(C)=O (configuration not stated)	107	109
26	CCCCN(CCCC)C1=C(C(=O)c2ccccc2)N(CC)S(=O)(=O)c2ccccc21	111	113
27	O=C(Cn1c(=O)nc(-c2ccccc2F)c2cc(Cl)ccc21)N1CCN(c2ccccc2F)CC1	101	108
28	CCOc1ccc(-c2cc(OC(=O)c3ccc(OC)cc3)c3c(C)oc(C)c3c(=O)c2)cc1	114	127
29	COc1ccc(CN(C(=O)COc2ccccc2OC)C2CCS(=O)(=O)C2)cc1 (configuration not stated)	104	111
30	CCOc1ccc(N(CC)C(=O)c2nn(-c3ccc(OC)cc3)c(=O)c3c2c2ccccc2n3C)cc1	108	109
31	COCC(C)NC(=O)C1=CC(c2ccc3c(c2)OCO3)=NS(=O)(=O)N1C (configuration not stated)	106	99
32	Cc1ccc(-n2c(=O)c3ccccc3n(CC(=O)Nc3cccc(C(F)(F)F)c3)c2=O)cc1	101	102
33	CC(=O)Nc1ccc(NC(=O)c2nc(SCc3ccccc3C)ncc2Cl)cc1	104	103
34	O=C(CSc1nc(-c2cccs2)nc2cc(=O)[nH]n12)Nc1ccccc1Cl	108	101
35	Cc1ccc(Cn2c(=O)n(Cc3ccco3)c(=O)c3sc4ccccc4c32)cc1	102	105
36	Cc1cc(NC(=O)Nc2nc3c(s2)CCCCCC3)ccc1Br	105	106
37	O=C(CSc1nc2c(c(=O)[nH]1)CCCC2)Nc1ccc(Br)cc1	108	106
38	CSc1ncc(Cl)c(C(=O)Nc2ccc(S(=O)(=O)Nc3nccc(C)n3)cc2)n1	121	118
39	COc1ccc(OCc2ccc(-c3nc(C#N)c(N4CCCCC4)o3)o2)cc1	104	107
40	COc1ccc(NC(=O)C(NS(=O)(=O)c2cccc3nsnc23)C(C)C)cc1OC (configuration not stated)	103	104
41	Cc1ccc(C)c(NS(=O)(=O)c2cc3c(cc2C)n(C)c(=O)c(=O)n3C)c1	108	113
42	Cc1cc(C)c(Cn2c3ccccc3c3cnn(CC(=O)NC4CCCCCC4)c(=O)c32)c(C)c1	105	104
43	COC(=O)c1cc(NC(=O)CCc2c(C)nc3cc(-c4ccccc4)nn3c2C)cc(C(=O)OC)c1	106	106
44	O=S(=O)(Nc1cccc(Cl)c1)c1ccc2[nH]c3c(c2c1)CCCCCC3	100	96
45	CCOc1ccc(NC(=O)c2cc(=O)c3cc(CC)ccc3o2)cc1	109	116
46	COC(=O)c1ccc(CSc2nc3c([nH]c4ccccc43)c(=O)n2-c2ccc(Cl)cc2)o1	109	97
47	COc1ccc(N(C)S(=O)(=O)c2ccc3c(c2)CCN3C(=O)CCC(=O)O)cc1	107	107
48	Oc1ccccc1Nc1nc2ccccc2n2nnnc12	110	151

3 compounds out of the list, ordered by heavy-atom count, descending.
nr	Molecule	Polio RdRp inh	Polio RdRp inh intensity
38	CSc1ncc(Cl)c(C(=O)Nc2ccc(S(=O)(=O)Nc3nccc(C)n3)cc2)n1	121	118
41	Cc1ccc(C)c(NS(=O)(=O)c2cc3c(cc2C)n(C)c(=O)c(=O)n3C)c1	108	113
48	Oc1ccccc1Nc1nc2ccccc2n2nnnc12	110	151

(continued)
nr	Molecule	Polio RdRp inh	Polio RdRp inh intensity
49	COc1cccc(-c2cc(C(F)(F)F)nc(NCCc3ccc(OC)c(OC)c3)n2)c1	104	106
50	Cc1ccc(NCc2cccn2-c2nnc(N3CCCCCC3)s2)cc1	103	104
51	COCCCNC(=O)C(=O)NCC(c1ccc2c(c1)OCO2)N1CCOCC1 (configuration not stated)	110	111
52	CCOC(=O)c1cccc(-n2nnc3c(sc4nc(C)c(Br)c(C)c43)c2=O)c1	112	112
53	COc1ccc(NC(=O)c2cc(S(=O)(=O)N3CCCC3)ccc2OC)cc1	105	104
54	O=c1c2sc3ccccc3c2n(Cc2cccc(F)c2)c(=O)n1Cc1ccccc1	101	105
55	COc1cccc(-c2nnc(SCC(=O)N3CCC(C)CC3)o2)c1	109	110
56	CCN(CC)c1ccc(NC(=O)C(Cc2ccccc2)NS(=O)(=O)c2ccc(Br)s2)c(C)c1 (configuration not stated)	104	106
57	CCOC(=O)c1c(S(=O)(=O)N2CCC(C(=O)N3CCN(c4ccc(F)cc4)CC3)CC2)c(C)n(C)c1C	105	108
58	Cc1ccc(-c2nc(SCC(=O)Nc3cc(C)on3)c3c(=O)n(C)c(=O)n(C)c3n2)cc1	112	113
59	Cc1cccc(N(CC(N)=O)C2SC(=O)N(Cc3cccc(C(=O)O)c3)C2=O)c1 (configuration not stated)	103	103
60	CCN(CC)CCCNC(=O)c1cn(CC)c2ccc(S(=O)(=O)N3CCc4ccccc4C3)cc2c1=O	101	107

As entered above:
Value for entry 56 in Polio RdRp inh: 104
Value for entry 55 in Polio RdRp inh: 109
Value for entry 60 in Polio RdRp inh intensity: 107
Value for entry 54 in Polio RdRp inh intensity: 105
Value for entry 53 in Polio RdRp inh: 105
Value for entry 59 in Polio RdRp inh: 103

Additional results.
nr	Molecule	Polio RdRp inh	Polio RdRp inh intensity
61	COc1ccc(-n2ncc(C(=O)N3CCN(Cc4ccccc4)CC3)c2C2CCN(C(=O)OC(C)(C)C)CC2)cc1	103	104
62	CC(=O)N1CCc2cc(Br)cc(S(=O)(=O)CCC(=O)NCCc3ccc(Cl)cc3)c21	102	104
63	CCn1c(CC2C(=O)N(C)c3ccccc32)nc2ccccc2c1=O (configuration not stated)	110	114
64	COc1ccc(OCCn2nnc3sc4c(c3c2=O)CCCC4)cc1	103	103
65	CC(C)Nc1ccc(-c2nc(-c3ccccn3)no2)cc1[N+](=O)[O-]	104	108
66	COc1ccccc1CNC(=O)CSc1ncc(S(=O)(=O)c2ccc(C)c(Cl)c2)c(=O)[nH]1	101	90
67	CCc1nn(CC(=O)Nc2cc(C)cc(C)c2)c(=O)c2cc3sccc3n12	104	103
68	COc1ccc(CNC(=O)C2CCN(S(=O)(=O)c3ccc(C)cc3)CC2)cc1	107	114
69	CCCCN1CCCc2cc(CN(CCCN3CCOCC3)C(=O)Nc3ccc(OCC)cc3)ccc21	108	110
70	CCC(=O)Nc1ccccc1-c1nc2ccccc2n(C(CC)C(=O)Nc2cccc(Cl)c2)c1=O (configuration not stated)	106	104
71	CCOC(=O)c1c(C)sc(-c2c(-c3ccc(OC)c(F)c3)[nH]c3[nH]c(=O)[nH]c(=O)c23)c1O	126	119
72	Cc1ccc(NC(=O)/C(C#N)=C\c2ccc(-c3ccc(Cl)cc3)o2)c(C)c1	103	113

Overlap with the part before: six entries, then new ones.
nr	Molecule	Polio RdRp inh	Polio RdRp inh intensity
67	CCc1nn(CC(=O)Nc2cc(C)cc(C)c2)c(=O)c2cc3sccc3n12	104	103
68	COc1ccc(CNC(=O)C2CCN(S(=O)(=O)c3ccc(C)cc3)CC2)cc1	107	114
69	CCCCN1CCCc2cc(CN(CCCN3CCOCC3)C(=O)Nc3ccc(OCC)cc3)ccc21	108	110
70	CCC(=O)Nc1ccccc1-c1nc2ccccc2n(C(CC)C(=O)Nc2cccc(Cl)c2)c1=O (configuration not stated)	106	104
71	CCOC(=O)c1c(C)sc(-c2c(-c3ccc(OC)c(F)c3)[nH]c3[nH]c(=O)[nH]c(=O)c23)c1O	126	119
72	Cc1ccc(NC(=O)/C(C#N)=C\c2ccc(-c3ccc(Cl)cc3)o2)c(C)c1	103	113
73	Cc1ccc(NC(=O)Cn2cc(C(=O)C3CCCCC3)c3ccccc32)cc1	101	105
74	Cc1cccc(N2C(=O)CS(=O)(=O)C23C(=O)N(C)c2ccccc23)c1 (configuration not stated)	107	116
75	O=C(Nc1sc2c(c1C(=O)NCc1ccccc1)CCCC2)c1cc(=O)c2ccccc2o1	102	106
76	CCCN(CCC)CCCNC(=O)c1cc2c(=O)n(C)c3ccccc3c2s1	98	93
77	O=c1oc2ccc3ccccc3c2cc1-c1nnc(Nc2ccccc2F)s1	118	132
78	CCCOc1ccc(OC(=O)c2ccc(-c3ccc(CCC)cn3)cc2)cc1	99	97
79	Cc1ccccc1CSc1nnc2[nH]c(=O)cc(C)n12	105	103
80	O=C(NCCc1ccccc1)C(=O)NCC(c1ccc2c(c1)OCO2)N1CCOCC1 (configuration not stated)	109	109
81	CCOC(=O)C1=C(CN2CCN(c3ccc(C)cc3C)CC2)NC(=O)NC1c1ccc(OC)cc1 (configuration not stated)	112	112
82	CCCCCn1c(=O)[nH]c2cc(C(=O)N3CCN(c4cccc(OC)c4)CC3)ccc2c1=O	108	112
83	CCN(CC)CCNC(=O)C(=O)NCC(c1ccc2c(c1)OCO2)N1CCOCC1 (configuration not stated)	100	104
84	Cc1ccccc1CSCc1ccc(C(=O)NCCc2ccccc2)o1	107	108

Screen by screen, as entered above.
Polio RdRp inh intensity, entries 73–82, in order: 105, 116, 106, 93, 132, 97, 103, 109, 112, 112
Polio RdRp inh, entries 73–82, in order: 101, 107, 102, 98, 118, 99, 105, 109, 112, 108

Next section.
nr	Molecule	Polio RdRp inh	Polio RdRp inh intensity
85	Cc1ccc(N(C)C(=O)c2noc3c2CCCCC3)cc1C	106	108
86	COc1ccc(NC(=O)c2ccc3c(c2)sc2nc(-c4ccc(OC)cc4)cn23)cc1	104	104
87	CNC(=O)c1cccc(-n2c(C)nc3cccnc32)c1C	110	117
88	CCN1CCN(c2cc(C)c3cc(NC(=O)/C=C/c4cccc(OC)c4OC)ccc3n2)CC1	104	97
89	CCOc1cc(C2c3c(oc4ccc(F)cc4c3=O)C(=O)N2Cc2ccco2)ccc1O (configuration not stated)	101	105
90	CCn1c(=O)c2sccc2n2c(CCC(=O)N3CCN(c4ccccc4OC)CC3)nnc12	103	106
91	COc1ccc(C)cc1NC(=O)c1noc2c1CSc1ccccc1-2	113	113
92	CC(C)CCNc1ncnc2c1cnn2-c1cccc(Cl)c1	109	114
93	Cc1ccc(-c2nnc3c4ccccc4c(-c4ccccc4)nn23)cc1	106	106
94	COC(=O)c1c(NC(=O)COc2cc(C)c(Cl)c(C)c2)sc2c1CCCC2	90*	89*
95	COc1ccc(-c2cnc(C)o2)cc1S(=O)(=O)Nc1ccc(NC(C)=O)cc1	116	113
96	Cc1ccc2cccc(NC(=O)C(C)Oc3ccc(Cl)cc3Cl)c2n1 (configuration not stated)	108	110
97	Cc1cc(C)c(/C=C/c2onc(C)c2S(=O)(=O)N2CCC(C(=O)N3CCN(c4ccccc4)CC3)CC2)c(C)c1	111	116
98	CC(=O)c1ccc(N2CCN(C(=O)CCCn3c(=O)[nH]c4ccsc4c3=O)CC2)cc1	108	110
99	Cc1c(NC(=O)Cc2ccc(Cl)cc2)cccc1-c1nc2cccnc2s1	110	110
100	CCC(=O)N1CCc2cc(CNS(=O)(=O)c3ccc(Br)s3)ccc21	111	116
101	CCOc1ccc(NC(=O)c2cnc(N3CCCC3)nc2C)cc1	107	112
102	COc1ccc(-c2cc(C(=O)Nc3ccc(C#N)cc3)no2)cc1	98	102
103	CCOc1ccc(NC(=O)CCS(=O)(=O)c2ccc3c(c2)n(C)c(=O)c(=O)n3C)cc1	106	108
104	CSc1ncc(Cl)c(C(=O)Nc2ccc(S(=O)(=O)N3CCC(C)CC3)cc2)n1	125	118
105	O=C(Cc1cccc([N+](=O)[O-])c1)NCc1nc2cccnc2n1Cc1ccc(F)cc1	97	97
106	Cc1ccccc1CNC(=O)C(=O)NCC(c1ccc2c(c1)OCO2)N1CCOCC1 (configuration not stated)	105	103
107	CC(=O)NCCNc1nc2c(-c3cccc(C)c3)nnn2c2ccc(Cl)cc12	109	111
108	CCc1ccc(NC(=O)C(=O)NCCc2sc(-c3ccc(OC)c(OC)c3)nc2C)cc1	111	104
